RanGTP-Impb inh = inhibitors of RanGTP-importin-beta interaction, primary screen, biochemical, FRET, CFP-Ran, YFP-importin-beta, homogeneous. 300,000 compounds, 1.1% hits. AID 2216, 2009. Ran GTPase (GTP-bound) - importin-beta complex. cell-free CFP-Ran/YFP-importin-beta FRET ratio. inhibition, % (test concentration not listed);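 active means most replicates above 15%; inconclusive means exactly half above 15%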;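 further: 0% = DMSO wells and 100% = Ran loaded with GDP instead of GTP; wells of about 40 µL received 100 nL stock; the first replicate is given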
Calb FLC = C. albicans growth inhibition with fluconazole, primary screen, CaCi-2 strain, Alamar Blue fluorescence | C. albicans CaCi-2 (fluconazole-resistant clinical isolate) + fluconazole, 48 h | growth inhibition, % (no concentration beside the values) | 300,000 compounds, 0.57% hits;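 active means most replicates above 75%; inconclusive means exactly half above 75%; inactive means most below 75%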;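 further: all wells also contain fluconazole at 8 µg/ml as a sub-toxic cotreatment; 0% = median of DMSO wells and 100% = median of geldanamycin control wells; wells of about 8 µL received 7.5 nL stock; the first replicate is given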
Beta apoptosis = inhibitors of cytokine-induced beta cell apoptosis, primary screen, luminescence. protection from apoptosis, % (no concentration beside the values). 300,000 compounds, 0.8% hits. INS-1E cytokine-induced death, ATP luminescence, 48 h; percent of positive-control rescue, neutral wells zero;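 active means all replicates at 75% or more, or half of them and the mean; inconclusive means half reach 75% but not the mean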;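 further: 0% = cytokine-treated negative control wells and 100% = positive control rescue; higher means more ATP so stronger rescue from cytokine killing; wells of about 40 µL received 100 nL stock; the first replicate is given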
AF4-AF9 inh = inhibitors of AF4 peptide binding to AF9, primary screen, biochemical, AlphaScreen, biotin-AF4 peptide, FLAG-AF9, single point; 350,000 compounds, 0.47% hits; inhibition, % at 10 µM;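 active means every replicate reaching a set inhibition limit, whatever the replicate mean, cut at about 25% in these data; inconclusive means mean inhibition reaches that limit but some replicates miss it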;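 further: 0% = plate neutral control median and 100% = total signal loss; the record names both 10 and 1 µM as test concentration; the first replicate is given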
Target sequence (P42568 whole entry, looked up): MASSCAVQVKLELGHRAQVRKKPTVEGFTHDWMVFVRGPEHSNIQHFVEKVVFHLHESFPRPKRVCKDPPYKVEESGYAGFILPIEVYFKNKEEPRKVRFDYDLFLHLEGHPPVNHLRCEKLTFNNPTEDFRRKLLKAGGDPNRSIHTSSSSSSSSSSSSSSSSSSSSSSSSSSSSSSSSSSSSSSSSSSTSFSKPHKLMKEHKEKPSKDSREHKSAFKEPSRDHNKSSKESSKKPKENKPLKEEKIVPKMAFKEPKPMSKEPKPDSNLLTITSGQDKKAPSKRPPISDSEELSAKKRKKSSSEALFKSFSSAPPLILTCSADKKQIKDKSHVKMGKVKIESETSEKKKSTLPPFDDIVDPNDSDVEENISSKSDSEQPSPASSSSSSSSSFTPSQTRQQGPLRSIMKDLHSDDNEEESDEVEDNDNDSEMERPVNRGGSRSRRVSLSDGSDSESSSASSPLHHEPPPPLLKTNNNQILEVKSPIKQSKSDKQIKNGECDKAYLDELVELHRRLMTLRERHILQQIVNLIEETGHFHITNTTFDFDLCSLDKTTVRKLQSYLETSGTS
T cruzi inh = inhibitors of intracellular T. cruzi growth, primary screen, luminescence, NIH3T3 host cells; AID 1885, 2009; T. cruzi beta-gal in NIH3T3, 90 h; 300,000 compounds, 1.4% hits; inhibition, % (test concentration not listed);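 active means mean inhibition across valid replicates above about 55%, limit read from the data; inconclusive means mean below that limit but half or more replicates reach it; inactive means mean below it, under half of replicates reach it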;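 further: signal also drops with host cell toxicity which is not excluded here; 0% = plate median of DMSO wells and 100% = zero luminescence signal; higher percent means less beta-gal luminescence so fewer parasites; stock transfer was 50 nL into about 50 µL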
A1 inh = caspase 3/7 activation in MEF A1-2A-BIM cells, primary screen, A1 inhibitor project, cell-based, luminescence, HTS; Caspase-Glo 3/7 luminescence, 3 h; percent of clofoctol response, vehicle zero; caspase activation, % (no concentration beside the values); 330,000 compounds, 0.066% hits;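 active means over half of replicate activation scores above 10%, or exactly half above 10 with the replicate mean above 10; inconclusive means replicate mean below 10 yet half the replicates above 10; inactive means over half of replicates below 10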;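 further: wells of about 30 µL received 50 nL stock; many hits fall short of the cut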
LANA-H2A inh = blockers of LANA interaction with H2A/H2B – biochemical, FP readout, HTS, primary screen; Protein LANA1 (Human herpesvirus 8 type P (isolate GK18)), Q9QR71; cell-free LANA-H2A/H2B peptide, fluorescence polarization; inhibition, % (test concentration not listed); 320,000 compounds, 0.6% hits; AID 2629, 2010; in the data active means inhibition mostly above about 10%, no sharp cut-off; inactive means mostly below about 6.7%;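 further: stock transfer was 7.5 nL into about 10 µL; 0% = median of vehicle wells and 100% = median of positive control wells; one replicate is shown; the record names a cut of 25% in any replicate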
Vif A3G = inhibitors of Vif binding to APOBEC3G peptide, primary screen, biochemical, TR-FRET, GST-Vif 1-94, biotin-A3G peptide, dose response retest (AID 1117319); TR-FRET GST-Vif / biotin-A3G peptide binding; higher % means a stronger effect; test concentration not given here; strong numbers were not always called active; inhibition, %, or IC50 in µM where a hit was titrated; 260,000 compounds, 0.57% hits;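 active means above the screen mean plus three standard deviations and confirmed in dose response; inconclusive means results disagree or hit not tested in dose response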;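 further: Vif residues 1-94 fused to GST binding biotinylated APOBEC3G peptide 110-148; 0% = full assay without inhibitor and 100% = GST in place of GST-Vif; retest series ran down from 100 µM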
* marks the source's active call; other numbers are inactive results; ? = inconclusive; · = no result given.

Order of values – RanGTP-Impb inh	Calb FLC	Beta apoptosis	AF4-AF9 inh	T cruzi inh	A1 inh	LANA-H2A inh	Vif A3G
> CN(CCC1CCCCO1)C(=O)CCc1nnc(CCCCc2ccccc2)o1 (stereo not drawn)
 : 5.1	-30	1	·	9	-0.5	2.3	-7%
> CCC(C(=O)OCC(=O)Nc1ccc(F)cc1)c1ccccc1 (stereo not drawn)
 : ·	·	-3	-6.2	·	-0.2	-3.9	12%
> Cc1sc2c(c1C)c(=O)nc1n2Cc2ccccc2-1
 : -0.8	4	·	·	4	·	·	2%
> O=C(COC(=O)/C=C/c1cccc(C(F)(F)F)c1)NC(=O)NCc1ccco1
 : ·	·	0	0.4	·	-0.1	0.4	·
> CCOC(=O)c1cnc2c(C)c(C)ccc2c1NCCN1CCOCC1
 : ?	-1	·	-39	22	·	·	·
> Cc1c(C)c(C)c(CN2CCCC2)c(C)c1C
 : ?	-7	-1	-0.4	41	1.0	4.0	-8%
> COc1ccc(S(=O)(=O)NCC2CCCO2)c(Cl)c1Cl (stereo not drawn)
 : 0.4	20	·	4.3	-15	0.0	0.3	·
> O=C(CN1C(=O)NC(Cc2c[nH]c3ccccc23)C1=O)NC1CCCCC1 (stereo not drawn)
 : ·	·	-5	-0.9	·	0.0	7.5	0%
> CC(C)CNC(=S)NNC(=O)c1ccccc1OC(F)F
 : 4.3	-7	0	·	-5	1.4	6.2	2%
> CCNc1nc(NC(C)C)nc(N2CC(=O)N(CC(=O)OCC)C2=N)n1
 : -0.4	3	-11	·	-18	0.4	-3.8	3%
> CCc1c(O)nc(SCC(=O)Nc2ccc(OC)cc2)n(C2CCCCC2)c1=O
 : 1.5	14	-2	·	-2	0.7	-2.7	1%
> O=C(c1ccccc1)N1CCN(c2ccc([N+](=O)[O-])c(N3CCOCC3)c2)CC1
 : -1.7	-7	1	1.1	-3	0.4	0.5	9%
> O=C(CCCOc1ccccc1)Nc1nccs1
 : 5.2	4	·	·	-4	0.2	2.0	4%
> CCNC(=O)CN1C(=O)NC2(CCCc3cc(OC)ccc32)C1=O (stereo not drawn)
 : -1.6	-2	0	·	-8	-1.0	-0.3	1%
> C=CC[C@@H](CC(=O)N(CCO)Cc1ccccc1)C(=O)N[C@H](COC(=O)[C@@H](CC=C)Cc1ccc(F)cc1)Cc1c[nH]c2ccccc12
 : ·	·	-4	0.0	·	-1.6	-3.1	·
> CN(CCCN1CCOCC1)C(=O)c1ccc2nc(Cc3cccc(Cl)c3)oc2c1
 : 6.1	2	0	-0.4	20	-0.3	-5.1	2%
> COc1ccc(C(c2nnnn2Cc2cccs2)N2CCN(c3ccccc3F)CC2)cc1OC (stereo not drawn)
 : -9.4	-20	-1	·	-6	-0.3	0.9	23%
> Cc1ccc(N/C=C(/C#N)c2ccsc2)cc1C
 : -0.3	6	9	·	2	-2.3	-0.2	-1%
> Cc1ccc2nc(-c3ccc(NC(=S)NC(=O)CC(C)C)cc3)sc2c1
 : -3.5	-5	-5	·	16	-0.6	1.1	-38%
> O=C(CCc1nc2ccccc2[nH]c1=O)OCC(=O)c1ccc(Cl)cc1
 : -4.5	6	-5	1.3	-14	0.0	1.5	·
> CC(=O)Nc1ccccc1Nc1cc(C#N)c(C#N)cc1[N+](=O)[O-]
 : -4.4	?	2	·	13	-0.3	2.5	4%
> O=C1CC(c2ccc(F)cc2)Cc2nc(N3CCOCC3)ncc21 (stereo not drawn)
 : 4.2	5	4	·	6	-0.3	-5.5	-6%
> COC(=O)c1cc(/C=C/c2ccccc2)[nH]n1
 : -0.6	1	1	5.1	-10	-4.4	1.0	-11%
> COc1cccc(C(=O)NNC(=O)C2CCCO2)c1 (stereo not drawn)
 : -1.2	-7	-8	-0.1	·	0.3	-4.0	·
> COc1ccc(C(=O)CSc2nnnn2C)c(OC)c1
 : 1.1	1	·	0.6	5	0.1	0.9	3%
> Cn1c2c(c(=O)n(C)c1=O)C(c1ccccc1OC(F)F)C1=C(CCCC1=O)N2 (stereo not drawn)
 : 5.2	4	-1	·	4	-1.1	0.7	2%
> O=C(Nc1ccccc1)c1ccc2c(c1)OCCCO2
 : 1.3	-9	·	2.5	-14	-9.9	-0.1	·
> CC(=O)c1cnc(SCC(=O)O)nc1C
 : -2.5	2	·	-0.8	-6	-0.3	5.0	-2%
> CCOC(=O)CSc1nnnn1-c1cccc2ccccc12
 : 5.4	3	-11	·	6	0.2	-2.7	26%
> COc1ccc(OC)c(-c2csc(NC(=O)c3ccc(OCC4CCCO4)cc3)n2)c1 (stereo not drawn)
 : ?	-6	14	1.9	29	0.3	-8.0	7%
> O=C(/C(N=Nc1cccc(C(F)(F)F)c1)=C(/O)c1cccs1)C(F)(F)F
 : -2.7	6	23	6.6	10	0.7	-0.1	-3%
> CCOc1ccc2nc3cc(NCc4ccc(OC)cc4)ccc3c(N)c2c1
 : 27*	102*	28	·	53	0.3	-6.5	-9%
> CN(C)c1nc2n(c(=S)n1)CCS2
 : 2.8	10	-2	·	-10	-0.7	12	1%
> COc1ccc(N2C(=O)NC(NC(=O)c3ccncc3)(C(F)(F)F)C2=O)cc1 (stereo not drawn)
 : 0.2	-12	-2	·	-7	1.2	-2.8	3%
> COc1cccc(C(c2nnnn2CC2CCCO2)N2CCN(C(=O)c3ccco3)CC2)c1OC (stereo not drawn)
 : 4.6	1	-7	-0.3	-1	-0.3	2.1	0%
> Cn1nnnc1SCC(=O)Nc1ccc(Oc2ccc(Cl)cc2)cc1
 : 1.8	-16	1	0.1	-2	-0.4	-5.8	1%
> Cc1ccc(CC(=O)NC2CCCc3ccccc32)cc1C (stereo not drawn)
 : 1.6	-6	-1	-3.8	11	0.0	5.6	·
> CCOC(=O)c1ccccc1NC(=O)CSc1nc2c(c(=O)n(C)c(=O)n2C)n1C
 : -1.6	18	·	·	-11	·	·	2%
> O=C(COC(=O)c1cc(=O)[nH]c2ccccc12)NCc1ccc(Cl)cc1
 : ·	·	-3	-3.5	·	-0.4	-1.2	29%
> CN(CC1CCCCO1)C(=O)c1cc(COc2ccc(F)cc2Cl)on1 (stereo not drawn)
 : 1.0	-15	1	-0.9	2	0.8	1.2	·
> CCOC(=O)c1cnc2ccccc2c1Nc1ccc2c(c1)OCCO2
 : 0.2	5	0	-38	4	0.5	16*	5%
> O=[N+]([O-])c1ccccc1N/N=C1\CC2CC=CC12 (stereo not drawn)
 : -0.5	-26	3	4.6	6	-1.7	3.2	24%
> COc1ccc(C(=O)Nc2cc(OC)ccc2OC)cc1
 : 0.6	0	3	·	·	-0.8	3.4	10%
> CSc1ccccc1NC(=O)CN1CCN(Cc2ccccc2)CC1
 : 4.9	8	-6	·	-1	0.0	-5.3	29%
> Cn1c(=O)c2c(nc(SCCCC#N)n2Cc2c(F)cccc2Cl)n(C)c1=O
 : 2.7	0	7	2.1	7	-0.1	2.4	16%
> CNc1ccccc1C(=O)OCC(=O)Nc1ccc2c(c1)OCO2
 : 2.5	3	8	-2.1	-2	-0.2	-1.8	6%
> Cc1ccc(C(=O)CN2/C(=C(\O)c3ccccc3)C(=O)c3ccccc3S2(=O)=O)c(C)c1
 : -0.6	16	4	·	-6	0.0	-0.1	3%
> Cc1ccnc(NC(=O)C23CC4CC(CC(C4)C2)C3)c1
 : 5.3	-15	0	·	8	-0.2	2.9	6%
> COc1ccc(N)cc1NC(=O)CN1CCCC1
 : 1.9	-2	-4	16	6	-0.3	2.8	·
> OCCN(Cc1ccccc1)Cc1ccc(C(F)(F)F)cc1
 : -0.2	?	-6	·	15	1.4	-5.4	-5%

(next part)
Order of values – RanGTP-Impb inh	Calb FLC	Beta apoptosis	AF4-AF9 inh	T cruzi inh	A1 inh	LANA-H2A inh	Vif A3G
> NNC(=S)NCc1ccccc1
 : 4.0	-1	7	8.2	-5	0.0	1.6	?
> O=C(NCCCn1ccnc1)c1cc(Cl)cc(Cl)c1
 : -3.4	7	-1	-5.3	13	-0.6	2.0	·
> CC1(C)CN(c2ccccc2)N(C(=O)c2ccc(F)cc2)C1=O
 : -0.4	5	-11	4.4	17	0.7	1.5	1%
> CCc1ccc(C2NC(=S)NC3=C2C(=O)N(c2ccccc2OC)C(c2ccc(CC)cc2)N3)cc1 (stereo not drawn)
 : -0.9	3	-8	·	13	0.1	3.9	3%
> O=C(NCCN1CCOCC1)c1cc(-c2cccc(Cl)c2)on1
 : 2.8	6	0	-8.2	-3	1.2	1.3	-1%
> CC(Oc1ccccc1)C(=O)Nc1nnc(S(=O)(=O)Nc2ccccc2)s1 (stereo not drawn)
 : ?	12	-4	-14	-10	0.5	3.3	·
> COc1ccccc1CNC(=O)[C@H](NC(=O)C1CCN(C(=O)[C@@H](N)CCSC)CC1)C(C)C
 : 7.3	-11	-2	-17	2	0.7	-1.3	·
> O=C(CN1C(=O)c2ccc([N+](=O)[O-])cc2C1=O)Nc1nccs1
 : 4.2	46	2	-3.9	-4	-0.3	2.5	20%
> CCCc1nnc(NC(=O)CCS(=O)(=O)Cc2ccccc2)s1
 : 7.4	?	-21	-2.2	-9	-0.2	3.6	2%
> COC(=O)c1cccc(NC(N)=S)c1
 : -2.0	-3	-4	-1.2	1	-0.1	-0.2	8%
> COc1ccc(S(=O)(=O)CCC(=O)N2CCN(c3ccc(F)cc3)CC2)cc1
 : 2.9	6	-6	0.7	-8	-0.5	-5.4	2%
> FC(F)Oc1ccc(C2=Nn3c(nnc3-c3ccccc3Cl)SC2)cc1OCC1CC1
 : ·	·	9	-0.9	·	-2.3	7.6	·
> O=C(Cc1cccc([N+](=O)[O-])c1)Nc1cccc(C(=O)N2CCOCC2)c1
 : ·	·	2	-2.5	·	?	1.9	·
> CCc1ccc(Nc2nnc(SCC(=O)NC(=O)c3cccn3C)s2)cc1
 : 8.1	19	1	-8.0	-9	-0.8	4.5	-4%
> CC1CCCN1CC#CC(O)(c1ccccc1)c1ccccc1 (stereo not drawn)
 : -2.5	5	7	-0.8	-2	0.4	-5.1	4%

Assay outcomes from PubChem BioAssay.
